# Screens: PubChem, National Center for Advancing Translational Sciences (NCATS)
# Menin-MLL FL inh – menin-MLL binding inhibition, fluorescein peptide; Fluorescence polarization, fluorescein-MLL peptide displacement from menin; FP activity change, % at 61.4 µM; 290,000 tested, under 10 active; AID 1766; inconclusive = falling polarisation curve, or a change in total fluorescence; inactive = total fluorescence flat and polarisation flat or rising; no compound was filed as active; the % refers to the polarisation; negative = inhibition;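 further: % of control where 0% means no effect; inhibitors lower the polarisation; unlabelled MLL peptide was the positive control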
# Sfp inh – Sfp phosphopantetheinyl transferase inhibition; Q9F4F7; Biochemical Sfp PPTase activity, qHTS; Potency, µM, for inactives: max response, negative = inhibition, usual class: inhibitors; 310,000 tested, 3.5% active; AID 1490; active means well fitted inhibition curve with a large enough effect; inconclusive means small, poorly fitted or top-dose-only effect, or another doubt; inactive means no such curve, though single readings can be large or run the other way;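 further: the enzyme is Sfp with the accession as filed and its product quenches rhodamine fluorescence; potency means the concentration at half of the fitted maximal effect; 0% = enzyme reaction without inhibitor and -100% = no enzyme wells; top concentration of the series not given in the record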
#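 Sfp 15 nM + cpd, 15 min RT; start w/ rhodamine-CoA 5 uM, BHQ-2-YbbR 12.5 uM (final); 50 mM Hepes pH 7.6, 10 mM MgCl2, 0.01% NP-40, 0.01% BSA; read 525/598 nm at 0 and 30 min.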
# * marks the source's active call; other numbers are inactive results; ? = inconclusive; & = joins results of further samples; [ ] = remark or other dose. Only part of the results is shown, so the mix of outcomes need not match the whole.
mol | Sfp inh | Menin-MLL FL inh
CC[C@H](C)[C@H](N)C(=O)N[C@@H](CCCNC(=N)N)C(=O)N[C@@H](CCC(N)=O)C(=O)NCC(=O)N1CCC[C@H]1C(=O)N[C@@H](CCCCN)C(=O)N[C@@H](CCC(=O)O)C(=O)N1CCC[C@H]1C(=O)N[C@@H](Cc1ccccc1)C(=O)N[C@@H](CCCNC(=N)N)C(=O)N[C@@H](CC(=O)O)C(=O)N[C@@H](Cc1ccc(O)cc1)C(=O)N[C@H](C(=O)N[C@@H](CC(=O)O)C(=O)N[C@@H](CCCNC(=N)N)C(=O)N[C@@H](Cc1ccccc1)C(=O)N[C@@H](Cc1ccc(O)cc1)C(=O)N[C@@H](CCCCN)C(=O)N[C@H](C(=O)N[C@@H](CC(C)C)C(=O)O)[C@@H](C)O)C(C)C | -1.1% | 0.3
O=C(NCC1CC1)C1(C(F)(F)F)C/C(=C\CCO)CCCO1 (stereo not given) | 1.7% | -3.4
CCC(C)C(NC(=O)OC(C)(C)C)C(=O)NC1COC2CC(n3ccc(NC(C)=O)nc3=O)OC12 (stereo not given) | 10.8% | 0.7
Cc1cc(C=O)c2c(c1)C=CC1(Oc3ccccc3C(=O)N1C)O2 (stereo not given) | -20.9% | ?
CNCCCNCc1ccc(SC)cc1 | 13.6% | 0.3
COC(=O)c1ccccc1NC(=O)CSc1nnc(-c2ccc(C)cc2)o1 | 8.5% | 1.6
O=C(NCc1cccs1)c1cc(-c2ccncc2)nc2ccc(Br)cc12 | -15.8% | 5.2
COC(=O)[C@@]1(Cc2ccc(OC)cc2)[C@H]2c3cc(C(=O)N4CCCC4)n(Cc4ccc(OC)c(OC)c4)c3C[C@H]2CN1C(=O)c1ccccc1 | -6.5%&3.5% | 0.1&0.0
COc1cc(C(=O)NS(=O)(=O)c2ccccc2C)ccc1Cc1cn(C)c2ccc(NC(=O)OC3CCCC3)cc12 | -14.4%&-11.6% | -0.1&0.3
Cc1cc(/C=N/Nc2nc(N)ncc2[N+](=O)[O-])c(C)n1-c1cccc(C(F)(F)F)c1 | ? | 0.0
COC(=O)[C@@]1(Cc2ccc(OC)cc2)[C@H]2c3cc(C(=O)N4CCCC4)n(CCc4c[nH]c5ccc(O)cc45)c3C[C@H]2CN1C(=O)c1ccccc1 | 1.2%&17.3% | 3.0&2.0
COC(=O)CNC(=O)C1(CC(C)C)C=CCN1C(C)=O (stereo not given) | 30.4% | -2.4
COCCCCCCCCCCCC(=O)O | 0.9%&-2.9% | -2.0
CCCC(C)NC(=O)c1ccc(-c2ccccc2)cc1 (stereo not given) | 1.6% | 3.8
COc1ccc2c(c1)OCc1c-2oc2cc(OC)ccc12 | -34.3% | 0.3
COC(=O)NC(/C=C/c1ccco1)[C@@]1(C(=O)OC)CCCC1=O (stereo not given in full) | -9.5% | -0.5[11.7 µM]
O=C(CN1CCN(CCN2C(=O)c3cccc4cccc(c34)C2=O)CC1)c1ccc(Cl)cc1 | -11.0% | 0.0
COc1cc(/C=C2/C(=O)N(c3ccccc3)N=C2C)ccc1OS(=O)(=O)c1ccccc1 | -22.4% | -0.3
COc1cc(/C=C(/C#N)c2nc(-c3cc4ccccc4oc3=O)cs2)cc([N+](=O)[O-])c1O | 7.5% | -0.1
C[C@H]1Cc2c(COc3ccccc3)nc3c(c2CO1)CN(C(=O)c1cccnc1)CC3 | 9.7% | -4.0[11.7 µM]

# Further results follow.
mol | Sfp inh | Menin-MLL FL inh
COc1cccc(OC)c1OCCNC[C@@H]1COc2ccccc2O1 | -1.8% | ?
O=C(NCc1cccnc1)C(=O)Nc1nccs1 | -22.3% | -2.6
O=c1c2ccccc2c(C=Nc2ccc(S(=O)(=O)Nc3ncccn3)cc2)c(O)n1-c1cccc(Cl)c1 | -4.3% | -2.6
COC(=O)C/C=C\[C@@H](C)[C@@H](CO)NS(=O)(=O)c1ccc(C)cc1 | 5.8% | -0.1[11.7 µM]
COC(=O)C(=Cc1cc(Br)c(OC)c(Br)c1)C(=O)OC | ? | -0.9
COc1cc(OC)c(C(=O)CCCCN2CCC3(CC2)NC(=O)NC3=O)cc1NS(=O)(=O)c1ccc(C(F)(F)F)cc1 | 15.0%&9.2% | ?
CC1=CC(=O)CC(C)(C)C1(O)/C=C/C(C)=C\C(=O)O (stereo not given) | 10.4%&-3.5% | -9.1&2.4
O=C1c2cc(Br)ccc2O[C@@H](c2ccc3c(c2)OCO3)[C@@H]1O | -8.2% | ?
C=NC(C(=O)NC1C(=O)N2C1SC(C)(C)C2C(=O)O)c1ccccc1 (stereo not given) | -9.9% | 1.2
C[C@@](N)(C(=O)O)c1ccc(P(=O)(O)O)cc1 | -1.0% | ?
Cc1cccn2c(=O)c3cc(C#N)c(=O)n(CC4CCCO4)c3nc12 (stereo not given) | 19.4% | 4.8
COc1ccc(NC(=S)N(CCO)Cc2ccccc2)cc1 | 4.5% | -1.5
CCC1=C2CC[C@H]3C(=O)N(CC)C(=O)[C@H]3[C@H]2[C@@]2(Cc3ccccc3)C(=O)N(CCOC)C(=O)N2C1=O | 14.6% | -10.8
CC1=C(/C=C/C(=C/C=C/C(C)=C/C(=O)O)c2ccc(C)cc2)C(C)(C)CCC1 | ? | 23.2
CCCn1c(C)nc2c(N(CCN(C)C)Cc3ccccc3)nc(C)nc21 | 21.6% | 2.8
COc1ccc(C(=O)/C=C/Nc2ccc(S(=O)(=O)Nc3ncccn3)cc2)cc1 | 7.4% | 1.6
COc1ccc(C2C(C#N)=C(N)N3C(=C2C#N)Sc2ccccc23)cc1 (stereo not given) | -2.1% | ?
COc1ccc2[nH]c(C(=O)c3ccccc3)cc2c1 | -3.4% | -13.2
CC[C@H](C)[C@H](NC(=O)[C@@H]1CCCN1C(=O)[C@H](Cc1cnc[nH]1)NC(=O)[C@H](CCCCNC(=O)[C@H](CCCN=C(N)N)NC(=O)OCc1ccccc1)NC(=O)[C@H](Cc1ccc(O)cc1)NC(=O)c1cccnc1)C(=O)O | -6.0% | -1.1
CCCC[C@H]1C[C@@H]1[C@@H]1N(P(=O)(c2ccccc2)c2ccccc2)C[C@@](O)(c2ccccc2)CC12CC2 | ? | 3.3

# Shown field by field: entries from further up
CC1=C(/C=C/C(=C/C=C/C(C)=C/C(=O)O)c2ccc(C)cc2)C(C)(C)CCC1
  Sfp inh: ?; Menin-MLL FL inh: 23.2

CCCn1c(C)nc2c(N(CCN(C)C)Cc3ccccc3)nc(C)nc21
  Sfp inh: 21.6%; Menin-MLL FL inh: 2.8

# Other entries:
mol | Sfp inh | Menin-MLL FL inh
O=C1/C(=C\c2ccc(O)c(O)c2)Oc2c1ccc(O[C@@H]1O[C@H](CO)[C@@H](O)[C@H](O)[C@H]1O)c2O | ? | 26.2
CCCC[C@@H]1C[C@H]1C(NC(=O)c1ccco1)c1ccc(Cl)cc1 (stereo not given in full) | 4.7% | 5.3
CCc1ccc(C(C(=O)NC2CCCCC2)N(C(=O)c2ccccn2)c2cccnc2)cc1 (stereo not given) | 27.0% | 2.0
CNC(=O)c1c(NC(=O)c2ccc(S(=O)(=O)N3CCCC3)cc2)sc2c1CCN(C(C)C)C2 | 0.5% | ?
COc1ccc(-c2[nH]ncc2CN(Cc2nccn2C)C(C)C)cc1F | 0.6% | 2.1
C[C@]12CCC(=O)C=C1CCC1C3CC[C@](O)(C(=O)CO)[C@@]3(C)CC3OC312 (stereo not given in full) | -2.1% | -1.2
CC[C@@H]1CC=C[C@H]2[C@H]1C(=O)N(Cc1ccccc1)[C@H]2c1ccc2ccccc2c1 | -2.8% | -1.4
NC1=NC(c2cn[nH]c2-c2ccc(F)cc2)n2c(nc3ccccc32)N1 (stereo not given) | 2.5% | -0.4
O=C1c2cc(O)cc(O)c2OC[C@@H]1c1ccc(O)c(O)c1 | -11.0% | 5.1
CCOC(=O)Oc1c(OC)cc(C(=O)O[C@H]2C[C@H]3CN4CCc5c([nH]c6cc(OC)ccc56)[C@@H]4C[C@H]3[C@@H](C(=O)OC)[C@@H]2OC)cc1OC | 8.9% | ?
C=CC[N+]1([C@H]2C[C@H]3[C@@H]4CC[C@H]5C[C@H](O)[C@@H](N6CCOCC6)C[C@]5(C)[C@H]4CC[C@]3(C)[C@H]2OC(C)=O)CCCC1 | -2.5% | 0.2
C[C@@H]1CCC2C(C)(C)C3CC21CC[C@@]3(C)O (stereo not given in full) | -11.0% | 3.7
O=S1(=O)C2CC3CCC2(CN1Cc1ccccc1)O3 (stereo not given) | 3.6% | 3.0
COc1ccc(Cl)cc1Nc1nc(-c2sc(NC(=O)c3ccccc3)nc2C)cs1 | 3.2% | 2.8
Cc1cc(C)c(NC(=O)C[C@H](CC(=O)O)c2cccc3ccccc23)c(C(=O)N2CCC3(CCCC3)CC2)c1 | 23.3% | -0.8
COc1ccc(O[C@H]2C=C[C@@H](c3ccccc3)O[C@@H]2COC(=O)CC/C(C)=N/O[C@@H](C)CN2CCCCc3nc(C)c(C)cc32)cc1 | -9.1% | 9.6
COc1cc(N/C=C(\C(C)=O)c2ccccc2)cc(OC)c1 | -14.7% | 2.1
C#Cc1cccc(Nc2ncnc3cc(OCCOC)c(OCCOC)cc23)c1 | -9.9% | -1.7
Cc1ccc(OCc2nnc(NC(=O)OCC(C)C)s2)c(C)c1 | -7.7% | 1.2
CC(C)c1nc(N(C)S(C)(=O)=O)nc(-c2ccc(F)cc2)c1/C=C/C(O)CC(O)CC(=O)O (stereo not given) | 9.9% | 0.3

# (list continues)
mol | Sfp inh | Menin-MLL FL inh
COc1cc2c(cc1OC)[C@@H]1O[C@](c3ccsc3)(C2)Oc2cc(C)n(-c3ccccc3)c(=O)c21 | 9.5% | 4.1[11.7 µM]
CC(C)C(C)/C=C/C(C)C1CCC2C3=CC=C4CC(O)CCC4(C)C3CCC21C (stereo not given) | -3.9% | -0.7
COCCNC(=O)C1(C)C=CCN1C(C)=O (stereo not given) | 41.5%[activator] | -15.3
Cc1cc(C2=CC(C)(c3cc(C)oc3C)Nc3nc(C(F)(F)F)nn32)c(C)o1 (stereo not given) | 12.6µM* | ?
COc1cc(C2c3c(oc4ccc(C)cc4c3=O)C(=O)N2c2cc(C)ccn2)cc(OC)c1OC (stereo not given) | 14.2% | 3.3
CCCNC(=O)OC[C@@H]1O[C@H](CCO/N=C2\c3cc(OC)ccc3O[C@H](c3cccc(OC)c3)[C@H]2O)C=C[C@@H]1Oc1ccc(OC)cc1 | 11.4% | 1.5[11.7 µM]
COC(=O)[C@@H](NC(=O)O[C@H]1C(=O)c2ccc(OC)cc2O[C@@H]1c1ccc2c(c1)OCO2)C(C)C | -8.1%&-5.8% | -2.7&1.0
CC(=O)N[C@@H]1C(O[C@H]2O[C@H](C(=O)O)C(O)[C@H](O)[C@H]2O)[C@H](O)[C@@H](CO)O[C@H]1O[C@@H]1C(C(=O)O)O[C@@H](O[C@H]2[C@H](O)[C@@H](CO)OC(O)[C@@H]2NC(C)=O)[C@H](O)[C@H]1O (stereo not given in full) | 25.5% | -5.4
CCCCCCCCCCC1=C(C)C(=O)C(OC)=C(OC)C1=O | -16.4%&17.5% | 2.5
CO[C@H]1C[C@@H]2CC[C@@H](C)[C@@](O)(O2)C(=O)C(=O)N2CCCC[C@H]2C(=O)O[C@H]([C@H](C)C[C@@H]2CC[C@@H](O)[C@H](OC)C2)CC(=O)[C@H](C)C=C(C)[C@@H](O)[C@@H](OC)C(=O)[C@H](C)C[C@H](C)C=CC=CC=C1C | 79.4µM* | -0.4
NC(Cc1c[nH]c2ccccc12)C(=O)O (stereo not given) | -31.8% | 1.8
C/C=C/C(=O)C[C@H]1CC[C@@H](C)[C@@H](CCO)O1 | -0.9% | -0.5
COC(=O)c1c(C)cc(OC(=O)c2c(C)cc(O)c(C=O)c2O)c(C)c1O | 0.7% | 0.0
COCCN(CCOC)c1nc(C)nc2c1nc(-c1ccccc1)n2CC1CCN(C)CC1 | 22.5% | 3.0
CC[C@H](C)[C@H](NC(=O)[C@H](CCCNC(=N)N)NC(=O)[C@@H]1CCCN1C(=O)[C@H](Cc1ccccc1)NC(=O)[C@H](Cc1cnc[nH]1)NC(=O)[C@H](CCCNC(=N)N)NC(=O)[C@@H](NC(=O)[C@H](C)NC(=O)[C@H](CCC(=O)O)NC(=O)[C@H](CC(N)=O)NC(=O)[C@@H](N)CCCCN)C(C)C)C(=O)N[C@@H](Cc1c[nH]c2ccccc12)C(=O)N[C@@H](CC(C)C)C(=O)O | 5.5% | -0.5
CC(C)c1c(O)ccc2c1CCC1[C@@](C)(CO)CCC[C@@]21C (stereo not given in full) | -10.7% | 0.5
OCCN1CCN(CCC=C2c3ccccc3Sc3ccc(Cl)cc32)CC1 | 1.1% | 1.9[24.8 µM]
CCOC(OCC)c1cn(Cc2ccc3c(c2)C(=O)c2ccccc2C3=O)nn1 | 10.6% | 0.5
C[C@H]1COc2c(N3CCN(C)CC3)c(F)cc3c(=O)c(C(=O)NCc4ccco4)cn1c23 | -2.2% | -2.7
CC12CCC=CC1C(c1ccoc1)N(Cc1ccccc1)C2=O (stereo not given) | -6.6% | 21.0
COc1ccc(-c2nc(-c3cccc(C)c3)nc(Cl)c2C#N)cc1 | 11.2% | -2.6
CCCN1C(=O)/C(=C/c2ccc(C)o2)NC1=S | 20µM* | ?
C[C@@H](C(=O)Nc1ccc2ccccc2c1)[C@H]1C[C@]1(C)[C@H](NP(=O)(c1ccccc1)c1ccccc1)c1ccccc1 | 4.5%&13.0% | 3.7&-4.9
